UCH37 DUB inh: inhibitors of human UCH37 deubiquitinase, primary screen, biochemical, Ub-AMC cleavage, fluorescence. Ubiquitin carboxyl-terminal hydrolase isozyme L5 (Homo sapiens), Q9Y5K5. purified proteasome/UCH37. inhibition, % (test concentration not listed). hit rate 0.33% among 330,000;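 active means mean of two replicates above 20%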;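 further: 0% = compound-free wells with enzyme and 100% = wells lacking proteasome; stock transfer was 100 nL into about 20 µL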
Target sequence (Q9Y5K5 whole entry, looked up): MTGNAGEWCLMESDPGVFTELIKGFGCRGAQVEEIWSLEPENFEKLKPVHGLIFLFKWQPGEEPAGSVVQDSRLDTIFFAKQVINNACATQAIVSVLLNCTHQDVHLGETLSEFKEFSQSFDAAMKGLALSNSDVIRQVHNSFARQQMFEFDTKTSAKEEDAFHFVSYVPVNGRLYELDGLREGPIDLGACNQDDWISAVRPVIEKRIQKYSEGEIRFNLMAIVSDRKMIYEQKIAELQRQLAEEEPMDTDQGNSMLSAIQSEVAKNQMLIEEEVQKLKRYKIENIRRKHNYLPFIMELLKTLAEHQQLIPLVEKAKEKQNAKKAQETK
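Signal – fluorescence, ex 355 nm, em 460 nm · System – Proteasome-bound UCH37 · Input – 0.15 nM proteasome as dispensed · Timing – 30 min preincubation with enzyme, 25 min cleavage at room temperature · Read-out basis – percent inhibition of cleavage signal versus uninhibited and no-proteasome wells · Medium – Tris-HCl pH 7.4 with ATP-MgCl2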
FGF22 binding: binders of human FGF22 protein, primary screen, FGF22 synaptogenesis inhibitor project, biophysical, thermal shift, single point | Fibroblast growth factor 22 (Homo sapiens), Q9HCT0 | recombinant FGF22 thermal shift, SYPRO orange fluorescence; percent of sucrose octasulfate shift, DMSO zero | calls only at 9.99 µM | hit rate 1.5% among 340,000 | AID 651658, 2012;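 active means melting point raised past a set limit in the mean and every replicate; three in four hits are not shown here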
Target sequence (Q9HCT0 whole entry, looked up): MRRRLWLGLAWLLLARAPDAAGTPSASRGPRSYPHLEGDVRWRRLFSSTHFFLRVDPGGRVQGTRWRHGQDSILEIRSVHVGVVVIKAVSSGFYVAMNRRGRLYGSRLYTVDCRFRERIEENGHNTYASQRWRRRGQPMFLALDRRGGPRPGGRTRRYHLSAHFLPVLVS
HNF4A DNA FP: change in binding of human HNF4A to DNA, primary screen, biochemical, fluorescence polarization, FITC-DNA | activity change, % at 10 µM | 1 h | hit rate 0.3% among 360,000; in the data active means activity change above about 30%, passing the limit was not always enough;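 further: controls were the assay level and a saturating level of protein; the project sought stronger binding though the title names inhibitors; some compounds called inactive have numbers as strong as hits; positive values seem to mean higher polarization but the record does not say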
rRNA inh HTS: reduced GFP signal of wild-type E. coli, primary screen, bacterial rRNA inhibitor project, GFP/RFP fluorescence, OD600, single point; hit rate 1.6% among 350,000; AID 720706, 2013; E. coli WT GFP vs humanized-ribosome RFP mutants, 24 h; stronger effect = lower value; DMSO median 0, no signal -100; GFP signal change (wild-type ribosome), % (no concentration beside the values);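 active means significant combined selectivity score with lowered wild-type GFP, culture density cut under 30%, mutant RFP and density less affected; inactive means any of these conditions unmet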; further: one replicate is shown; some compounds called inactive have numbers as strong as hits
Ecoli growth: E. coli growth inhibition, primary screen, OD600. Escherichia coli growth, 23 h; stronger effect = lower value. OD600 absorbance (concentration not given with the values). hit rate 0.21% among 330,000. AID 1053175, 2014;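 active means OD600 absorbance below the run mean of sample wells minus 3.6 SD, in any replicate, cut at about 0.56 in these data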;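 further: stock transfer was 300 nL into about 60 µL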
ALR inh: inhibitors of human ALR sulfhydryl oxidase, primary screen, biochemical, H2O2 detection, HRP-luminol luminescence, single point | FAD-linked sulfhydryl oxidase ALR (Homo sapiens), P55789 | purified ALR, DTT oxidation | inhibition, % (no concentration beside the values) | hit rate 3.8% among 290,000 | AID 485317, 2010;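 active means mean and each replicate at 75% or more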;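 further: stock transfer was 7.5 nL into about 7.5 µL; 0% = neutral wells and 100% = wells with inactivated enzyme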
Target sequence (P55789 whole entry, looked up): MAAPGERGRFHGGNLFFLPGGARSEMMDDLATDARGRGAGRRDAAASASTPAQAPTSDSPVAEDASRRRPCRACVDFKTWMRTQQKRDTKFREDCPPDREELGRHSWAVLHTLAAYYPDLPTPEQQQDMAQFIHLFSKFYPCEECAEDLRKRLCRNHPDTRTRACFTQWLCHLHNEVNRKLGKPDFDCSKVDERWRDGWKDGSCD
B2AR ag: beta2AR agonists driving receptor internalization, primary screen, cell-based, FAP fluorogen, flow cytometry; Beta-2 adrenergic receptor (Homo sapiens), P07550; Am2.2-beta2AR cells; reference of the scale not given here; response, % (concentration not given with the values); hit rate 0.43% among 340,000;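 active means response above a set limit, near 3 SD of response in nonfluorescent compounds, cut at about 42% in these data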;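 further: stock transfer was 100 nL into about 11 µL; a reference agonist was the positive control; negative values mostly stem from fluorescent compounds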
rRNA inh HTS OD600: recorded beside rRNA inh HTS, whose call it bears; OD600 change, %; measured here: OD600 growth;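 optical density of the mix in the first replicate; 0 = DMSO median and -100 = no signal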
rRNA inh HTS RFP: second read-out of rRNA inh HTS, no call of its own (marks repeat the call); RFP signal change, %; measured here: RFP humanized mutant strains;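 first replicate; 0 = DMSO median and -100 = no signal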
Starred values were filed as active, the others as inactive; i = inactive; nt = not tested or not shown. An excerpt; rates above refer to the full screens.

SMILES | UCH37 DUB inh | FGF22 binding | HNF4A DNA FP | rRNA inh HTS | rRNA inh HTS OD600 | rRNA inh HTS RFP | Ecoli growth | ALR inh | B2AR ag
N=C1C(c2nc3ccccc3[nH]2)=C(O)CN1c1ccc(F)cc1 | 3.2 | nt | -0.9 | nt | nt | nt | 0.684 | -14.8 | 1.0
CC1(C)C(=O)OC(/C=C\c2cccc([N+](=O)[O-])c2)C(C)(C)C1=O (stereo unspecified) | -1.6 | i | 0.4 | 15.6 | 9.1 | 1.7 | 0.689 | -11.6 | 10.4
COc1ccc2occ(C(=O)c3cccs3)c2c1 | 1.9 | nt | 4.0 | nt | nt | nt | 0.649 | 4.7 | -6.6
C/C(=N\NC(=O)c1cccc(S(=O)(=O)N2CCCC2)c1)c1ccc(F)cc1 | nt | i | 3.4 | 2.5 | 6.0 | -0.8 | nt | -1.2 | 5.8
Cc1cccnc1NC(=O)c1cccc(NC(=O)CC2SC(N3CCCCC3)=NC2=O)c1 (stereo unspecified) | 0.1 | i | 5.3 | 4.3 | 9.2 | 0.5 | 0.674 | nt | -11.3
CN(C)S(=O)(=O)c1ccc(NC(=O)N2CCN(c3cccc(C(F)(F)F)c3)CC2)cc1 | 0.3 | nt | 9.0 | nt | nt | nt | 0.665 | -2.8 | 0.2
COC(=O)c1ccc(NC(=O)Cn2nnc(-c3cccs3)n2)cc1 | 3.8 | nt | -5.1 | 5.0 | 2.4 | 0.9 | 0.661 | -9.3 | -2.7
COc1ccc(C2C(C(=O)Nc3cc(C)on3)c3ccccc3C(=O)N2C)cc1 (stereo unspecified) | -2.1 | nt | -1.2 | nt | nt | nt | 0.716 | -6.3 | -4.3
O=C(O)C1CCCCC1C(=O)Nc1ccc2c(c1)OCCO2 (stereo unspecified) | 3.9 | nt | -3.8 | nt | nt | nt | 0.68 | -34.6 | 3.4
Cc1c(NC(=O)c2cc(Br)ccc2Cl)cccc1-n1cnnn1 | 5.4 | i | 3.1 | 5.1 | 6.7 | -1.8 | 0.661 | -9.8 | -19.9
O=c1onc(-c2ccccc2)c2ccccc12 | 1.4 | i | -3.3 | 5.3 | 2.2 | 0.1 | 0.669 | -15.4 | 0.5
COc1ccc(Cn2nnnc2CN2CCN(c3ccc(OC)cc3)CC2)cc1 | 1.0 | nt | 2.8 | -20.1 | -34.0 | 16.6 | 0.675 | 19.5 | 1.4
CCN(CC)CCCCCOc1ccccc1OC | -1.0 | i | -2.8 | 15.6 | 11.8 | -5.6 | 0.688 | -5.5 | -9.3
COc1ccccc1CN(Cc1nc2ccccc2c(=O)[nH]1)S(=O)(=O)c1ccc(C)cc1 | -0.1 | i | nt | 1.9 | 16.4 | 7.2 | 0.689 | 0.9 | 1.0
Cc1ncoc1C(=O)N1CCCC(N2CCN(c3ccccc3F)CC2)C1 (stereo unspecified) | 5.9 | i | -3.3 | 1.7 | 6.5 | -1.3 | 0.664 | -3.1 | -1.3
CCOc1cccc(-c2cc(=O)[nH][nH]2)c1 | 3.1 | nt | -2.5 | nt | nt | nt | 0.713 | 74.9 | 5.5
CCOc1ccccc1CNS(=O)(=O)c1ccc2c(c1)C(C)(C)C(=O)N2C | 3.4 | i | -0.5 | -9.9 | -7.4 | 3.1 | 0.721 | 3.5 | 2.8
COC(=O)c1cc(N=CC2=C(O)CC(C)(C)CC2=O)cc(C(=O)OC)c1 | -8.0 | i | -0.7 | -1.1 | -1.7 | -0.8 | 0.677 | 0.9 | -10.0
CC(=O)Nn1c(C)nnc1-n1nc(C)cc1C | -1.5 | nt | -0.6 | nt | nt | nt | 0.725 | -2.1 | 3.0
CCOc1ccccc1N=C1SCC(C)N1C(=O)C1CCN(c2ncnc3sc(C)c(C)c23)CC1 (stereo unspecified) | 1.4 | i | 2.7 | -12.8 | -21.5 | 1.5 | 0.673 | nt | -0.4
Cc1ccc(S(=O)(=O)NCc2nnc(SCC(=O)Nc3cccc(C)c3C)n2C)cc1 | 1.3 | i | 1.8 | 3.4 | 1.2 | -0.9 | 0.729 | -0.9 | 3.3
C(=C\c1ccccc1)/CN1CCN(C(c2nnnn2-c2ccc3c(c2)OCCO3)C2CC2)CC1 (stereo unspecified) | nt | i | -1.2 | -20.4 | -29.8 | 11.4 | nt | nt | nt
O=C(NCCN1CCN(c2ccccc2)CC1)C1CCCN(S(=O)(=O)c2cnc[nH]2)C1 (stereo unspecified) | 2.0 | nt | 1.4 | nt | nt | nt | 0.748 | 97.1* | 5.0
COc1ccccc1N1CCN(C(=O)CN(C)S(=O)(=O)c2ccc(C)cc2)CC1 | nt | i | 3.5 | 4.9 | 12.9 | 2.8 | nt | nt | nt
CCOC(=O)c1ccc(NC(=O)c2nc[nH]c2C(=O)NC[C@H](C)O)cc1 | nt | i | 4.0 | 6.7 | 10.2 | 2.7 | nt | nt | nt
Continued:
SMILES | UCH37 DUB inh | FGF22 binding | HNF4A DNA FP | rRNA inh HTS | rRNA inh HTS OD600 | rRNA inh HTS RFP | Ecoli growth | ALR inh | B2AR ag
COc1ccc(CC(=O)N[C@@H](C)C(=O)N2CCC3(CC2)NCCc2[nH]cnc23)cc1 | 3.3 | i | -0.4 | 6.9 | 10.5 | -3.1 | 0.711 | -11.0 | -4.2
O=C(NCc1ccc(F)cc1)c1ccc(Cl)c(NC2=NC3CS(=O)(=O)CC3S2)c1 (stereo unspecified) | 7.9 | i | 1.1 | -0.8 | 2.5 | -8.7 | 0.767 | -9.1 | 10.5
CC(SCc1ccccc1)C(=O)Nc1ccccc1-c1ccccc1 (stereo unspecified) | -1.7 | i | -4.0 | -26.4 | -25.8 | -4.1 | 0.671 | -2.3 | -8.8
O=c1[nH]cnc2ccc([N+](=O)[O-])cc12 | 4.1 | i | -1.7 | 4.7 | 15.1 | 1.6 | 0.67 | -5.8 | 8.0
CCC(=O)CN(Cc1cc(OC)ccc1OC)S(=O)(=O)c1ccccc1Br | 1.3 | i | -1.6 | 0.4 | -23.9 | -13.1 | 0.691 | nt | -7.8
CCc1ccc2oc(-c3cc(N)ccc3Cl)nc2c1 | -11.0 | nt | 1.1 | nt | nt | nt | 0.722 | -4.2 | 9.8
Cc1sc2ncnc(OCC(=O)N3CCN(S(=O)(=O)c4ccc(Cl)cc4)CC3)c2c1C | -0.1 | nt | 1.1 | nt | nt | nt | 0.686 | -0.3 | 0.1
COc1ccc(CC(=O)N2CCN=C2SC)cc1OC | -2.1 | i | -0.8 | 8.9 | 6.5 | 1.5 | 0.684 | -3.8 | -5.1
O=C(O)c1ccc(OCCN2CCCC2=O)cc1 | 6.0 | i | 1.2 | 0.1 | -1.1 | -6.7 | 0.638 | 0.0 | 6.6
O=C(NCc1ccc2c(c1)OCO2)c1[nH]c(C(F)(F)F)nc1-c1ccccc1 | nt | i | -0.5 | 10.2 | -23.9 | -9.3 | nt | nt | nt
CN(C)S(=O)(=O)c1ccc2c(c1)C(=NO)c1cc(S(=O)(=O)N(C)C)ccc1-2 | -62.9 | i | -2.7 | 7.1 | 5.5 | 5.0 | 0.727 | -1.4 | -1.4
CC(=O)NC(Cc1ccccc1F)C(=O)NC1CCN(C(=O)NCc2ccccc2)CC1 (stereo unspecified) | nt | i | -2.9 | 9.4 | 17.2 | 1.2 | nt | nt | -4.4
COc1cc(C(=O)N2CCCC(c3cc(C(=O)NCc4ccc(F)cc4)no3)C2)cc(OC)c1C (stereo unspecified) | nt | i | 3.0 | 2.3 | -11.4 | -4.2 | nt | nt | nt
O=S(=O)(/C=C/c1ccccc1)NCCc1ccccn1 | -6.0 | nt | 0.4 | nt | nt | nt | 0.733 | -1.9 | 1.9
CCCCNC(=O)Cn1c(=O)n(C)c2ccccc21 | 7.8 | i | -0.4 | 7.9 | 9.6 | -1.1 | 0.765 | -8.4 | 5.5
CN(CCC#N)C(=O)c1ccc(CNS(=O)(=O)c2ccc(F)cc2)cc1 | -0.4 | nt | -0.6 | nt | nt | nt | 0.725 | -3.6 | -2.3
O=[N+]([O-])c1cc(S(=O)(=O)Oc2ccccc2)ccc1Cl | nt | i | 3.0 | -45.1 | -41.1 | -11.0 | nt | nt | 40.8
COc1cc2c(cc1OC)C(c1ccc(C)cc1)NC(=O)C2 (stereo unspecified) | 0.7 | i | 0.2 | 5.2 | 13.2 | 1.8 | 0.644 | 10.1 | 8.2
O=C(N1CCN=C1SCc1cccnc1)C12CC3CC(CC(C3)C1)C2 | 1.8 | nt | 1.8 | nt | nt | nt | 0.691 | 98.9* | 1.3
NNC(=O)CN1C(c2ccc(Cl)cc2)=Nc2ccc(Br)cc2C1c1ccccc1 (stereo unspecified) | 1.6 | nt | 5.0 | nt | nt | nt | 0.651 | -1.8 | 6.2
CN(C)c1ccc(N=Nc2ccccc2C(=O)OCC(=O)NC2CCCC2)cc1 | 13.8 | nt | 2.1 | nt | nt | nt | 0.681 | 96.9* | -1.1
O=S1(=O)CCOC[C@H](c2ccccc2)N1Cc1ccccc1 | -0.5 | i | -0.1 | -35.5 | -41.0 | -18.6 | nt | -2.0 | 5.8
O=C(CSc1n[nH]c(=O)[nH]c1=O)NCC1CCCCC1 | 3.8 | i | 2.4 | 7.6 | 8.0 | 3.6 | 0.727 | 3.5 | -5.6
CCOC(=O)c1[nH]c2ccc(F)cc2c1NC(=O)c1ccccc1C(=O)O | -18.5 | i | -4.3 | -3.4 | 5.6 | -1.4 | 0.642 | 65.6 | 0.5
COc1ccc2c(c1OC)c(=O)n1c3ccc(OC(C)C(=O)NCCCN4CCOCC4)cc3c3ccnc2c31 (stereo unspecified) | -311.3 | nt | 2.8 | nt | nt | nt | 0.72 | -29.2 | -1.1
O=C(Nc1ccccc1OC(F)F)C1CC(=O)N(Cc2ccccc2)C1 (stereo unspecified) | -0.1 | nt | 4.2 | 6.9 | 7.9 | -0.9 | 0.698 | -21.4 | 4.4
O=C(c1ccc(Cl)c(S(=O)(=O)N2CCCC2)c1)N1CCCCC1 | -1.5 | i | 2.0 | 6.4 | 3.9 | -3.5 | 0.689 | 2.5 | 5.7
CC1CCCC(C)N1C(=O)CSc1ccc(-c2ccc3c(c2)OCCO3)nn1 (stereo unspecified) | 4.5 | i | 2.1 | -14.2 | -18.9 | 1.2 | 0.685 | -3.1 | 2.5

An excerpt taken from the entries so far, for reference:
SMILES | UCH37 DUB inh | FGF22 binding | HNF4A DNA FP | rRNA inh HTS | rRNA inh HTS OD600 | rRNA inh HTS RFP | Ecoli growth | ALR inh | B2AR ag
COc1ccc(CC(=O)N[C@@H](C)C(=O)N2CCC3(CC2)NCCc2[nH]cnc23)cc1 | 3.3 | i | -0.4 | 6.9 | 10.5 | -3.1 | 0.711 | -11.0 | -4.2
O=C(NCc1ccc(F)cc1)c1ccc(Cl)c(NC2=NC3CS(=O)(=O)CC3S2)c1 (stereo unspecified) | 7.9 | i | 1.1 | -0.8 | 2.5 | -8.7 | 0.767 | -9.1 | 10.5
CC(SCc1ccccc1)C(=O)Nc1ccccc1-c1ccccc1 (stereo unspecified) | -1.7 | i | -4.0 | -26.4 | -25.8 | -4.1 | 0.671 | -2.3 | -8.8
O=c1[nH]cnc2ccc([N+](=O)[O-])cc12 | 4.1 | i | -1.7 | 4.7 | 15.1 | 1.6 | 0.67 | -5.8 | 8.0
CCC(=O)CN(Cc1cc(OC)ccc1OC)S(=O)(=O)c1ccccc1Br | 1.3 | i | -1.6 | 0.4 | -23.9 | -13.1 | 0.691 | nt | -7.8
